CtBP-E1A blk: qHTS Assay for Inhibitors of the CtBP/E1A Interaction. CtBP / adenovirus E1A interaction (AlphaScreen). AlphaScreen GST-E1A/His-CtBP binding, 1536-well; active compounds read low; control for the full effect not named in the record. activity change, % (no concentration beside the values). 340,000 tested, 0.49% active. AID 651724, 2012; in the data active means activity change below about -65%; inconclusive means about -30% to -65%; inactive means above about -30%; also: % is scaled to controls: 0 for no effect and ±100 for the full control effect
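Protein mix (5X: 125 nM each GST-E1A, His-CtBP) was incubated with pinned compound 2 h at 37 deg C in dark, in 50 mM Tris pH 8.0 buffer with 300 mM NaCl. Glutathione donor and nickel acceptor beads followed; AlphaScreen signal read after 1 h.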
Six1-Eya2 blk: qHTS Assay for Inhibitors of the Six1/Eya2 Interaction; Homeobox protein SIX1 (Homo sapiens) + Protein phosphatase EYA2 (Homo sapiens), …; AlphaScreen GST-Six1/His-Eya2 binding, biochemical; active compounds read low; control for the full effect not named in the record; activity change, % (no concentration beside the values); 360,000 tested, 0.56% active; AID 651725, 2012; in the data active = activity change below about -65%; inconclusive = about -30% to -65%; inactive = above about -30%; also: % is scaled to controls: 0 for no effect and ±100 for the full control effect
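Homogeneous AlphaScreen proximity assay pairing GST-Six1 with His-tagged Eya2 (added as 5X mix: 250 nM and 500 nM) in 50 mM Tris pH 8.0, 300 mM NaCl, 1 mM TCEP. Glutathione donor and nickel acceptor beads; 1 h, 37 °C, dark.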
TRPML1 ag: qHTS for Agonists of the Human Mucolipin Transient Receptor Potential 1 (TRPML1) | Mucolipin-1 (Homo sapiens), Q9GZU1 | TRPML1-expressing cells, Ca2+ dye fluorescence, FDSS; host cell line not named in the record; reference of the full effect not given here | activation, % (test concentration not listed) | 410,000 tested, 0.12% active; in the data active = activation above about 50%; inconclusive = about 30% to 50%; inactive = below about 30%; also: 0% is about no effect; the text of the record puts the active cut at 80%
Target sequence (Q9GZU1 whole entry, looked up): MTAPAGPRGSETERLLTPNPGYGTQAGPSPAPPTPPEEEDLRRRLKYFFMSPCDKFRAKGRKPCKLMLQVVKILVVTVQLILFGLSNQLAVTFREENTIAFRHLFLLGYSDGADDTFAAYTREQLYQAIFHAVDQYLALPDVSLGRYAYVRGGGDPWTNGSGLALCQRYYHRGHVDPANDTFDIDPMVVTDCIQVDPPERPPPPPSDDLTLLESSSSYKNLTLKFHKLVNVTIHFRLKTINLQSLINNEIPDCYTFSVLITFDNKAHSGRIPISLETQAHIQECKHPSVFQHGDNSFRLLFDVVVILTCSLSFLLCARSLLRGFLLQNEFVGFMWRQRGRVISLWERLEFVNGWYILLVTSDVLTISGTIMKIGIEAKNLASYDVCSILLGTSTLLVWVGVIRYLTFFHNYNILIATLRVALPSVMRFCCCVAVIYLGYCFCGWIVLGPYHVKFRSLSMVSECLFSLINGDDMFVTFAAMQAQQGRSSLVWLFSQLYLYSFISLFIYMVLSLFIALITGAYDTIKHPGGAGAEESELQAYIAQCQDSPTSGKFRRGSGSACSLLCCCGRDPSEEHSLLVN
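TRPML1-DL cells, Tet-induced overnight (~16 h, 37 degrees C), loaded 45-90 min at room temperature with Ca8 no-wash calcium dye plus quencher. FDSS fluorescence: 10 s baseline, compound pin-transfer, 110 s agonist read, then EC80 54-4 (4uM final) and 110 s antagonist read.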
D2 ag: Beta-Arrestin HTS for Positive Allosteric Modulators of the Human D2 Dopamine Receptor: Agonists. D(2) dopamine receptor (Homo sapiens), P14416. DiscoveRx PathHunter D2 beta-arrestin, luminescence, 90 min; 100% = 57 uM dopamine signal. activation, % (no concentration beside the values). 360,000 tested, 0.084% active. AID 624465, 2012; in the data active = activation above about 40%; inconclusive = about 15% to 40%; inactive = below about 15%; also: compound concentration not given in the record; the text of the record calls up to 30% inactive
Target sequence (P14416 whole entry, looked up): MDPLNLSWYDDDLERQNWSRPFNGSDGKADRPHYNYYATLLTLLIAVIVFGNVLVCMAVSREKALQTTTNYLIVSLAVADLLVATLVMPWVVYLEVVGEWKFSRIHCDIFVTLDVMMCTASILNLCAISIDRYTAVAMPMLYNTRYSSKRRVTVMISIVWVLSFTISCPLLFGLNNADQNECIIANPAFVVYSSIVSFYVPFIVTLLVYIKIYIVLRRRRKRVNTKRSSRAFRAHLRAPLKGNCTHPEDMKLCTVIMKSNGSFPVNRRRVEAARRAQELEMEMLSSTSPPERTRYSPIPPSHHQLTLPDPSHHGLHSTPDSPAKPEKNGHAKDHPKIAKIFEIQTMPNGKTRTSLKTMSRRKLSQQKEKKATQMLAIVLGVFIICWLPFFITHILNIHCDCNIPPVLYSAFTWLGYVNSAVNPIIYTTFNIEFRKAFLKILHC
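DiscoveRx PathHunter D2 beta-arrestin cells (2,100/well) attached overnight, then compound-stimulated 90 min at 37 C in HBSS/10 mM HEPES/0.1% Tween-20 buffer; beta-galactosidase complementation read by luminescence after 1 h at ambient temperature. Dopamine 57 uM final (EC100) as control.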
PINK1 expr mod: A Quantitative High throughput Screen to Identify Chemical Modulators of PINK1 Expression; Potency, µM (series often up to 76.6 µM), inactives show at the top dose activation (PINK1 increase), most hits filed as activators; PINK1 immunofluorescence, high-content cytometry, 24 h; 410,000 tested, 0.2% active; active = well fitted activation curve with a large enough effect; inconclusive = small, poorly fitted or top-dose-only effect; inactive = flat fitted curve, though single readings scatter; cell line not stated here;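 also: potency is read from the fitted curve at half-maximal effect; % of control where 0% means no effect; nearly all actives have a fitted effect of over 65% in size; a mitochondrial uncoupler was the plate control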
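Compound titrations (5 concentrations, 24 h) on a stable cell line; DMSO and CCCP controls. Endpoint: fixed-cell PINK1 immunofluorescence with mitochondrial, cell and nuclear markers, scanned by microplate cytometer.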
D2 PAM: Beta-Arrestin HTS for Positive Allosteric Modulators of the Human D2 Dopamine Receptor: Potentiators; D(2) dopamine receptor (Homo sapiens), P14416; DiscoveRx D2 beta-arrestin cells, luminescence, 90 min; 100% = 57 uM dopamine signal; potentiation, % (concentration not given with the values); 360,000 tested, 0.23% active; active = potentiation of 50% or more; inconclusive = 30% to 50%; inactive = 30% or less;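 also: compound concentration not given in the record; tested on top of an EC20 dose of dopamine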
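PathHunter D2 cells, attached overnight at 37 deg C, received compound in DMSO plus dopamine at EC20 (50 nM final) for 90 min at 37 deg C. Beta-arrestin recruitment was read as luminescence after 1 h with detection reagent at ambient temperature.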
* = called active by the depositor; u = inconclusive; x = not tested or not shown; [ ] = remark or other dose.

1	Cn1cccc1C(=O)N1CCc2ccccc2C1
2	CCOC(=O)c1c(C)[nH]c(C)c1C(=O)COC(=O)/C=C/c1ccccc1[N+](=O)[O-]
3	COc1cc(NC(=S)NCCC(c2ccccc2)c2ccccc2)c(OC)cc1Cl
4	COc1ccc(OCCNC(=O)C2(C)CCN2Cc2ccc(SC)cc2)cc1 (configuration not stated)
5	Cc1ccc(-c2cc(C(=O)NCc3cccnc3)no2)cc1
6	O=C(Nc1ccc(Cl)cn1)c1ccc2c(c1)OCCO2
7	COc1ccc(NC(=O)COc2nsnc2N2CCOCC2)cc1
8	Cc1ccc(S(=O)(=O)N/N=C/c2cnn(C)c2C)cc1

compound no.	1	2	3	4	5	6	7	8
CtBP-E1A blk	-1	3	-14	-18	0	2	-20	0
Six1-Eya2 blk	-2	-5	-18	-15	0	-2	-5	21
TRPML1 ag	-0.4	1.7	1.9	0.1	0.2	-0.8	4.3	2.0
D2 ag	0.0	4.8	-3.0	-2.4	-0.2	-1.7	0.1	-4.2
PINK1 expr mod	1.4%	2.5%	0.2%	4.5%	3.9%[38.3 µM]	2.8%	-0.7%	-1.1%
D2 PAM	5	-1	-21	-3	-11	-10	-2	2

Single records, from the list above. Order of values: CtBP-E1A blk, Six1-Eya2 blk, TRPML1 ag, D2 ag, PINK1 expr mod, D2 PAM
Cn1cccc1C(=O)N1CCc2ccccc2C1 is listed with -1, -2, -0.4, 0.0, 1.4%, 5
COc1cc(NC(=S)NCCC(c2ccccc2)c2ccccc2)c(OC)cc1Cl is listed with -14, -18, 1.9, -3.0, 0.2%, -21
Cc1ccc(-c2cc(C(=O)NCc3cccnc3)no2)cc1 is listed with 0, 0, 0.2, -0.2, 3.9%[38.3 µM], -11
O=C(Nc1ccc(Cl)cn1)c1ccc2c(c1)OCCO2 is listed with 2, -2, -0.8, -1.7, 2.8%, -10
Cc1ccc(S(=O)(=O)N/N=C/c2cnn(C)c2C)cc1 is listed with 0, 21, 2.0, -4.2, -1.1%, 2

(more compounds)
9	COc1ccccc1C(=O)NC(CCSC)C(=O)NNC(=O)c1ccccc1O (configuration not stated)
10	O=C(O)[C@@H]1CCCN1S(=O)(=O)c1cccc2cccnc12
11	COc1ccc(NC(=O)CCCNC(=O)Cn2cnc3sc(C)c(C)c3c2=O)cc1OC
12	COc1ccc2c(c1)C(C)=CC(C)(C)N2S(=O)(=O)c1ccc(NC(C)=O)cc1
13	CC(=O)OC[C@H]1COc2ccc3ccccc3c2[C@H]1N(C)C(C)=O
14	CC1=Nn2c(nnc2-c2ccco2)SC1
15	CC1(C(=O)NS(=O)(=O)C2CC2)CCCN(C(=O)c2ccccc2OC(F)(F)F)C1 (configuration not stated)
16	O=C(Cn1cnc(Cl)c1Cl)c1ccc(F)cc1

compound no.	9	10	11	12	13	14	15	16
CtBP-E1A blk	x	-1	-5	0	7	-3	7	1
Six1-Eya2 blk	-10	-2	18	-9	12	-3	-1	7
TRPML1 ag	-0.3	-0.5	-1.2	0.5	-0.4	-0.3	-0.6	-1.0
D2 ag	-5.1	-3.6	-5.3	-1.7	-0.1	-3.8	-2.6	3.8
PINK1 expr mod	1.7%	3.6%	1.3%	3.8%	2.0%	-2.0%	0.0%	3.6%
D2 PAM	-6	-7	-1	-1	1	-6	1	-8

17	COc1ccc(CC(=O)Nc2cccc(-c3csc(C)n3)c2)cc1
18	CCCC(=O)Nc1ccc(Cl)c(NC(=S)NC(=O)c2ccco2)c1
19	CCN(c1ccccc1)S(=O)(=O)c1ccc2c(c1)C(C)(C)C(=O)N2C
20	O=C(OCC1CCNCC1)c1ccc2c(c1)OCO2
21	O=C(CN1C(=O)COc2ccc(Cl)cc21)N1CCCCC1
22	Cc1ccccc1CC(=O)Nc1cccnc1
23	CCOc1ccc(NCc2nnc(SCC(=O)Nc3cc(C)on3)n2-c2ccc(OC)cc2)cc1
24	CCN(C(=O)c1ccc(Cl)cc1[N+](=O)[O-])c1ccccc1C

compound no.	17	18	19	20	21	22	23	24
CtBP-E1A blk	-7	-11	-1	10	1	-1	-9	2
Six1-Eya2 blk	5	-10	5	1	-3	-1	-13	-16
TRPML1 ag	1.9	-0.5	-0.7	0.4	0.2	0.9	0.4	0.0
D2 ag	0.8	-5.1	-3.6	0.4	-6.2	-2.4	-2.8	12
PINK1 expr mod	-2.6%	3.9%	0.5%	12%	-0.2%	-1.0%	-19%[38.3 µM]	0.3%
D2 PAM	-20	5	0	19	-9	1	-19	6

25	CCN(CC)CCNc1ccnc2cc(Cl)ccc12
26	CCCCN(CC)Cc1ccc(CNC(=S)Nc2c(C)cc(C)cc2C)o1
27	Cc1oc2ccc(O)c(CN(C)C)c2c1C(=O)c1ccccc1
28	OCC1(Cc2ccccc2F)CCCN(Cc2c(F)ccc(F)c2F)C1 (configuration not stated)
29	CN(NC(=O)NN)c1ncc(C(F)(F)F)cc1Cl
30	Cc1ncc(CO)c2c1OC(C)(C)OC2
31	CCOC(=O)NC1(C(F)(F)F)C(=O)NC(C)=C1C(=O)OC (configuration not stated)
32	CC(=O)NCCN1C(=O)C2C3c4ccccc4C(c4ccccc43)C2C1=O (configuration not stated)

compound no.	25	26	27	28	29	30	31	32
CtBP-E1A blk	0	-2	-1	2	-4	5	2	4
Six1-Eya2 blk	5	-7	1	-6	6	6	1	1
TRPML1 ag	1.1	0.2	1.4	-0.6	-0.5	0.4	0.4	-1.1
D2 ag	-2.2	-1.0	1.2	-7.7	0.5	-0.5	1.4	0.7
PINK1 expr mod	-4.0%[38.3 µM]	3.5%	-1.3%	7.2%	x	-1.1%[38.3 µM]	1.2%[38.3 µM]	-0.5%
D2 PAM	-9	-17	-9	-14	-9	-5	-1	9

33	O=C(O)C(c1ccccc1)C1CCCCC1O (configuration not stated)
34	O=C(C1CCCN(Cc2ccccc2F)C1)N1CCc2ccccc2C1 (configuration not stated)
35	CCC(=O)N1CC2(c3ccccc3)CN(C(=O)CC)CC(c3ccccc3)(C1)C2=O
36	Cc1ccc(NC(=O)NCc2cccnc2)cc1C
37	C[C@@H]1CN([C@@H](C)CO)C(=O)CCCn2nncc2CO[C@@H]1CN(C)C(=O)c1ccncc1
38	CC/C(=C\c1ccc(Cl)cc1)c1ccncc1
39	Cn1cccc/c1=N\c1cccc[n+]1C
40	CC(C)(C)C1CCc2c(sc(NC(=O)c3cccs3)c2C(N)=O)C1 (configuration not stated)

compound no.	33	34	35	36	37	38	39	40
CtBP-E1A blk	3	2	11	1	-5	-1	x	13
Six1-Eya2 blk	7	1	2	1	7	22	-2	6
TRPML1 ag	-0.2	0.3	x	0.6	0.7	1.8	0.3	0.8
D2 ag	2.0	-3.6	0.9	-0.9	-3.8	-4.3	-0.4	0.3
PINK1 expr mod	-0.4%	-1.5%	-0.1%	1.3%	0.3%	-4.5%	8.7%	6.9%
D2 PAM	1	-17	1	-5	-5	-10	7	-30

41	COCCNC(=O)C(c1ccc(O)cc1)N(Cc1ccco1)C(=O)CCC(=O)Nc1ccccn1 (configuration not stated)
42	O=C(COc1ccc([N+](=O)[O-])cc1)NNC(=O)c1cccs1
43	COc1ccc(CN2C(=O)Cc3c2nc(N)c2c(N)nc(N4CCOCC4)c(C#N)c32)cc1
44	CC(=O)Nc1ccc(S(=O)(=O)NCc2cccnc2)cc1
45	CC(=O)N/C(=C/c1ccc([N+](=O)[O-])cc1)C(=O)O
46	CCOc1ccc(NS(=O)(=O)c2ccc3c(c2)N(C(C)=O)CC3)cc1
47	CC(NC(=S)Nc1ccccc1)C(c1cccs1)N1CCOCC1 (configuration not stated)
48	CCn1c(SC)nnc1C1CCN(S(=O)(=O)c2ccc(OC)cc2)CC1

compound no.	41	42	43	44	45	46	47	48
CtBP-E1A blk	0	-4	x	-3	18	3	-1	7
Six1-Eya2 blk	4	6	-18	-2	6	8	-3	7
TRPML1 ag	0.2	-0.3	-0.9	0.3	1.1	-0.4	0.2	0.6
D2 ag	2.2	-3.9	1.4	-4.7	0.2	6.7	-2.1	1.9
PINK1 expr mod	0.3%	2.2%	1.0%	-1.9%	2.0%	0.1%	1.7%	-2.4%
D2 PAM	-2	-8	0	-2	-2	8	-11	8

49	C=CCOc1cccc(C(=O)NC(c2ccccc2)C(C)C)c1 (configuration not stated)
50	COc1cc2c(cc1OC)C1(NCC2)C(=O)Nc2ccccc21 (configuration not stated)
51	Cn1c(SCC(=O)Nc2cccc(S(=O)(=O)NC3=NCCCCC3)c2)nnc1-c1ccccc1
52	O=c1c(NCCc2ccccc2)c(-c2ccccc2)c1=O
53	CC(=O)c1ccc(N2CCN(C(=O)CCCn3c(=S)[nH]c4cc5c(cc4c3=O)OCO5)CC2)cc1
54	CCC(=O)N(CCc1ccc(OC)c(OC)c1)Cc1cc2ccc(C)cc2n2nnnc12
55	O=C(COc1ccc2c(C(F)(F)F)cc(=O)oc2c1)NCc1cccs1
56	Cc1c(C(=O)c2ccccc2C(=O)O)sc2ccccc12
57	Nc1[nH]n2c(=O)cc(-c3ccccc3)nc2c1N=Nc1ccccc1
58	Cc1ccc2nc(-c3cccc(S(=O)(=O)N4CCCC4)c3)cn2c1
59	CCc1ccc(Nc2nc3ccccc3c(=O)s2)cc1

compound no.	49	50	51	52	53	54	55	56	57	58	59
CtBP-E1A blk	15	-9	x	2	-14	-2	12	4	3	-1	1
Six1-Eya2 blk	0	1	2	8	-16	-2	8	6	-10	1	0
TRPML1 ag	2.0	-0.4	3.2	-0.3	1.0	-0.2	0.0	-0.4	4.9	-0.7	-0.7
D2 ag	0.9	0.1	4.6	0.0	-0.6	-1.1	-1.3	-1.0	-1.8	8.0	0.1
PINK1 expr mod	1.0%	1.3%[38.3 µM]	2.9%	6.5%	u	-0.3%	3.3%	2.1%	3.9%	0.1%	1.5%
D2 PAM	-3	13	-3	-7	u	-1	2	-8	-17	7	-2
